# Sfp inh: qHTS Assay for Inhibitors of Bacillus subtilis Sfp phosphopantetheinyl transferase (PPTase). Biochemical Sfp PPTase activity, qHTS. Potency, µM, without a hit: max response, negative = inhibition, actives largely listed as inhibitors. actives 3.5% (n = 310,000). AID 1490, 2009; active means well fitted inhibition curve with a large enough effect; inconclusive means small, poorly fitted or top-dose-only effect, or another doubt; inactive means no such curve, though single readings can be large or run the other way;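 further: the enzyme is Sfp with the accession as filed and its product quenches rhodamine fluorescence; potency means the concentration at half of the fitted maximal effect; 0% = enzyme reaction without inhibitor and -100% = no enzyme wells; top concentration of the series not given in the record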
#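 Fluorescence-quenching assay with 15 nM Sfp, 5 uM rhodamine-CoA and 12.5 uM BHQ-2-labelled ybbR peptide in pH 7.6 Hepes/MgCl2 buffer. Enzyme was pre-incubated with compound for 15 min at room temperature. Rate was taken from the 30-min fluorescence change (525/598 nm).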
# Menin-MLL FL inh: qHTS Assay for Inhibitors Targeting the Menin-MLL Interaction in MLL Related Leukemias: Competition With Fluorescein Labeled MLL-derived Peptide; Fluorescence polarization, fluorescein-MLL peptide displacement from menin; FP activity change, % at 61.4 µM; 290,000 tested, under 10 active; AID 1766, 2009; inconclusive = falling polarisation curve, or a change in total fluorescence; inactive = total fluorescence flat and polarisation flat or rising; no compound was filed as active; the % refers to the polarisation; negative = inhibition;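 further: % of control where 0% means no effect; inhibitors lower the polarisation; unlabelled MLL peptide was the positive control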
# Numbers without * were called inactive; ? = inconclusive; & = joins results of further samples; [ ] = dose if it differs, or a comment.
SMILES,Sfp inh,Menin-MLL FL inh
COC(=O)C1=C(C(=O)OC)[C@@H]2N(C)c3ccc(OC)cc3[C@@]23C[C@@H](C(=O)OC)N(S(=O)(=O)c2ccc(C(F)(F)F)cc2)C3=N1,2.2%,-4.0[11.7 µM]
O=c1c(-c2cccs2)nc2cnc(N3CCOCC3)nc2n1CCc1ccccc1,-9.3%,?
CN(C)C(=O)c1ccc(-c2nc(Nc3ccc(F)cc3)c3ccccc3n2)cc1,-17.8%,4.5
CC(C)OC(=O)[C@H]1O[C@H](CCCCOCc2ccccc2)[C@@H](C)[C@H]2O[C@H]21,-13.8%,-1.2
CC1(C)CO[C@H](CC(=O)O)CN1,5.0%,-11.3
CC(=O)N1CC[C@@H]2CC(=O)C[C@@H](C)[C@@H]21,12.6%,0.7[138 µM]
Cc1cccc(CNc2ncnc3ccc(-c4ccccc4CN(C)C)cc23)c1,-8.5%,11.2
CN(C)c1nc(-c2cccnc2)nc2ccccc12,-16.7%,?
CCOC(=O)OCC1OC(c2ccc(C(C)=O)cc2)C=CC1OC(=O)OCC (stereo unspecified),13.6%,-0.2[11.7 µM]
O=C(c1cccc(F)c1)N1CCC[C@@]2(CCN(C(c3ccccc3)c3ccccc3)C2)C1,3.2%,16.7
CCCCc1cc2c(cn1)=C(OC(=O)c1ccc(Cl)nc1)C(C)(OC(=O)CC)C(=O)C=2 (stereo unspecified),7.4%,-2.2[11.7 µM]
O=c1[nH]c(-c2ccccc2O)nc2ccccc12,0.0%,-0.3
NC(=O)OC[C@H](O)COc1ccc(Cl)cc1,21.4%,0.0[24.8 µM]
CC(C)[C@H](NC(=O)[C@H](CCCCN)NC(=O)[C@@H](NC(=O)[C@@H]1CCCN1C(=O)[C@H](CCCN=C(N)N)NC(=O)[C@H](CCCN=C(N)N)NC(=O)[C@H](CCCCN)NC(=O)[C@H](CCCCN)NC(=O)CNC(=O)[C@@H](NC(=O)[C@@H]1CCCN1C(=O)[C@@H](N)CCCCN)C(C)C)C(C)C)C(=O)N[C@@H](Cc1ccc(O)cc1)C(=O)N1CCC[C@H]1C(=O)O,0.3%,-13.9
COc1ccccc1-c1cncnc1NCCN1CCOCC1,-24.5%,-1.3
COc1ccc2c(c1)C(=O)[C@H](OC(=O)Nc1ccc(OC(F)F)cc1)[C@@H](c1ccc(OC)c(Br)c1)O2,15.6%,0.6
Cn1cc(-c2nc3cnc(Oc4ccccc4)nc3n(C3CC3)c2=O)c2ccccc21,14.0%,7.7
CC(C)CN1CC[C@@]2(CCCN(C(=O)c3cnccn3)C2)C1,-5.4%,-2.0
COC(=O)[C@@]1(Cc2ccc(OC)cc2)[C@H]2c3cc(C(=O)N(C)C)n(Cc4cc(F)c(F)c(F)c4)c3C[C@H]2CN1C(=O)c1ccccc1,14.2%,8.5
Cc1ccc(CNC(=O)[C@H](C)[C@@H]2C[C@@]2(C)[C@@H](NC(=O)OCc2ccccc2)c2ccccc2)c(F)c1F,24.5%,-7.9
CC(C)C[C@@H](CC(=O)N[C@H](CC(=O)N[C@@H]1CCNC[C@H]1C(=O)N[C@H](CC(=O)N[C@@H](CCC(=O)O)CC(=O)O)Cc1c[nH]c2ccccc12)C(C)C)NC(=O)[C@@H]1CNCC[C@H]1N,-17.9%,-0.2
CS(=O)(=O)c1ccc(CNC(=O)[C@H]2C[C@@H]2[C@H](NP(=O)(c2ccccc2)c2ccccc2)c2ccccc2)cc1,20.5%,-0.5
COCCn1c(=O)cnc2cnc(N(C)C)nc21,3.3%,0.3
COc1ccc(-n2c(=O)c(C)nc3cnc(Nc4ccccc4)nc32)cc1,17.0%,13.3
COc1ccc(C(=O)Nc2sc3c(c2C(N)=O)CCCC3)cc1OC,-3.0%,5.1

# 3 of the compounds above, as labelled records:
SMILES: CC(=O)N1CC[C@@H]2CC(=O)C[C@@H](C)[C@@H]21
  Sfp inh: 12.6% | Menin-MLL FL inh: 0.7[138 µM]
SMILES: Cc1cccc(CNc2ncnc3ccc(-c4ccccc4CN(C)C)cc23)c1
  Sfp inh: -8.5% | Menin-MLL FL inh: 11.2
SMILES: CN(C)c1nc(-c2cccnc2)nc2ccccc12
  Sfp inh: -16.7% | Menin-MLL FL inh: ?

# Next part
SMILES,Sfp inh,Menin-MLL FL inh
COc1ncc2nc(-c3ccccc3)c(=O)n(-c3ccccc3)c2n1,18.0%,1.6
CC(Nc1oc(-c2ccccc2)nc1-c1ccccc1)c1ccccc1 (stereo unspecified),-10.2%&7.8%,1.5&0.2
CC(C)(C)OC(=O)NCCCC1=CC2=CC(=O)C(C)(OC(=O)c3cnc4ccccc4n3)C(=O)C2=CO1 (stereo unspecified),-15.3%,1.1
C=CC[C@@H]1C=C[C@H](O/N=C(\C)CCN2CCCCc3nc(C)c(C)cc32)[C@H](CO)O1,-11.0%,0.8[11.7 µM]
CC[C@H]1OC(=O)[C@H](C)C(=O)[C@H](C)[C@@H](OC2O[C@H](C)C[C@H](N(C)C)[C@@H]2O)[C@@](C)(OC)C[C@@H](C)C(=O)[C@@H](C)C2N(CCCCn3cnc(-c4cccnc4)c3)C(=O)O[C@@]21C (stereo partly specified),8.5%,0.9
CCCCc1nc2c(c3c1C[C@H](C)OC3)CN(C(=O)Nc1cccc(C#N)c1)CC2,16.2%,-0.3[11.7 µM]
CC[C@H]1C2=C3C(CC[C@H]4C(OC)OC[C@](C)([C@@H]34)N(C(=O)OC(C)(C)C)C2)C(CO)C1CO (stereo partly specified),0.5%,1.3
CCC12C=C(/C=C/c3ccccc3)C(CC)(C1)C(c1ccccc1)CC2=O (stereo unspecified),-8.9%,1.5[11.7 µM]
N#Cc1ccc(CN2CC3(CCN(C(=O)c4cnccn4)CC3)C2)cc1,20.2%,-6.7
c1cncc(-c2cncnc2NCc2cccs2)c1,-3.2%,?
O=[N+]([O-])c1ccc(-c2nc(-c3ccc(F)cc3)c(-c3ccncc3)[nH]2)cc1,-29.0%,15.6&2.6
CCCCc1cc2c(cn1)=C(OC(=O)CCC(=O)OC)C(C)(OC(=O)CC)C(=O)C=2 (stereo unspecified),21.5%,2.1[11.7 µM]
COc1ccc(C2OC3C(CO)OC(n4cnc5c(=O)[nH]c(N)nc54)C3O2)cc1 (stereo unspecified),5.9%,5.4
C=C1CCC2[C@](C)(CO)C(O)CC[C@]2(C)C1C/C=C1/C(=O)OCC1O (stereo partly specified),15.7%,3.4
CC1(C)OC2CO[C@]3(COS(N)(=O)=O)OC(C)(C)OC3C2O1 (stereo partly specified),20.4%,-3.6
O=C1C=CC2(OCCCO2)C(Br)=C1CO,-2.2%,-2.8
Cc1noc(C)c1C(=O)N1CCC2(CCN(C(=O)NC(C)C)CC2)CC1,1.7%,-2.3
COc1ccc(COC(=O)N/N=C2/C[C@@H](O)[C@@H](O)[C@@H]3[C@@H]4C(=O)N([C@@H](C)c5ccccc5)C(=O)[C@H]4CC[C@@H]23)cc1,7.8%,-0.5[11.7 µM]
COC(=O)[C@@]1(Cc2ccccc2)[C@H]2c3cc(C(=O)N4CCCC4)n(CCO)c3C[C@H]2CN1C(=O)c1ccccc1,7.6%,-8.6
CCN(CC)CCCn1c(-c2ccccc2)nc2c(N3CCOCC3)nc(C)nc21,22.3%,-2.8
C=CCOC(=O)N[C@@H](CCc1ccccc1)C(C(C)=O)C(C)=O,23.1%,-0.6
CCCCC/C=C\C/C=C\CCCCCCCC(=O)O,2.7%&5.0%&-1.8%,-5.6&0.5
CCC(=O)OC1C2CC3=C4CC(=O)OC(c5ccoc5)[C@]4(C)CCC3[C@@](C)(C2=O)C(CC(=O)OC)C1(C)C (stereo partly specified),-0.5%,-1.6
CC[C@H]1OC(=O)[C@H](C)[C@@H](O[C@H]2C[C@@](C)(OC)[C@@H](O)[C@H](C)O2)C(C)[C@@H](O[C@@H]2O[C@H](C)C[C@H](N(C)C)[C@@H]2O)[C@](C)(OC)C[C@@H](C)C(=O)[C@H](C)[C@@H](O)[C@]1(C)O (stereo partly specified),-9.6%,0.6
O=C(c1ccco1)N1CCC2(CCCN(c3ccccn3)C2)CC1,-1.0%,6.0
# Following part.
SMILES,Sfp inh,Menin-MLL FL inh
CC1(C)[C@@H](O)CC[C@]2(C)C3C(=O)C=C4C5C[C@@](C)(C(=O)O)CC[C@]5(C)CC[C@@]4(C)[C@]3(C)CC[C@@H]12 (stereo partly specified),?,52.6[activator]
CCCCCC1=C2CNC(Cc3ccccc3)(C(=O)OC)C=C2C(C)C1=O (stereo unspecified),4.3%,-2.9
COc1ccccc1CN1CC[C@@]2(CCCN(C(=O)c3cc(C(F)(F)F)cc(C(F)(F)F)c3)C2)C1,-4.6%,0.9
COC(=O)N1C(C2CC2)=Cc2ccccc2C1CC(C)=O (stereo unspecified),-1.2%&-7.8%,-0.6
O=c1c(CCc2ccccc2)nc2cnc(N3CCNCC3)nc2n1-c1ccccc1,8.8%,?
CO[C@@H]1[C@@H](OC(N)=O)[C@@H](O)[C@H](Oc2ccc3c(O)c(NC(=O)c4ccc(O)c(CC=C(C)C)c4)c(=O)oc3c2C)OC1(C)C,1.7%,0.9
CC(=O)N1C2(C=CC1(C)C(=O)NCCN1CCOCC1)CCCCC2 (stereo unspecified),20.5%,5.8
FC(F)(F)c1ccccc1-c1cncnc1Nc1ccccc1,5.3%,1.5
CCC(C(=O)O)C1OC(C(C)C(O)C(C)C(=O)C(CC)C2OC3(C=CC(O)C4(CCC(C)(C5CCC(O)(CC)C(C)O5)O4)O3)C(C)CC2C)C(C)CC1C (stereo unspecified),14.9%,4.3
COc1ccc(NC(=O)N2CCCC3(CCN(S(C)(=O)=O)CC3)C2)cc1,12.3%,-9.0
CC[C@@H]1O[C@]2(C=C[C@@H]1C)C[C@H]1C[C@H](CC=C(C)[C@@H](O[C@@H]3C[C@H](OC)[C@H](O[C@@H]4C[C@H](OC)[C@H](O)[C@H](C)O4)[C@H](C)O3)[C@@H](C)C=CC=C3CO[C@@H]4[C@@H](O)C(C)=C[C@@H](C(=O)O1)[C@]34O)O2,9.5%,1.7[24.8 µM]
COC(=O)c1ccc(C(NC(=O)OCc2ccccc2)/C(F)=C/[C@@H](C)C(=O)NCCN2CCOCC2)cc1 (stereo partly specified),-2.4%,0.9
COC(=O)c1ccc(C(/C=C/[C@@H](C)C(=O)NCCc2c[nH]c3ccccc23)NC(=O)OCc2ccccc2)cc1 (stereo partly specified),24.2%,-4.2
COc1ccc(NC(=O)N2CC3(CCN(C(=O)c4cnccn4)CC3)C2)cc1,-5.9%,1.9
CC(=O)OC[C@@H]1O[C@@H](O/N=C2/C[C@@H](O)[C@@H](O)[C@@H]3[C@@H]4C(=O)N(C5CCCCC5)C(=O)[C@H]4CC[C@@H]23)[C@H](OC(C)=O)[C@H](OC(C)=O)[C@@H]1OC(C)=O,1.7%,-4.0[11.7 µM]
CC(=O)N[C@H](CS)C(=O)O,-38.9%,1.1
CC(C)CCCC(C)CCCC(C)CCCCC(C)CCCC(C)CCCC(C)C (stereo unspecified),22.9%,-0.6
O=c1c(-c2ccccc2)nc2cnc(Oc3cccc(Cl)c3)nc2n1C[C@H]1CCCO1,9.7%,-1.4
COc1ccc(C(O)C2=CCCC2=O)cc1 (stereo unspecified),-15.6%&-0.7%,6.0&0.6
CCOC(=O)CCN1C(=O)[C@H]2[C@H]3[C@H](O)[C@H](O)C/C(=N/NC(=O)OCc4ccccc4)[C@@H]3CC[C@@H]2C1=O,24.8%,-1.4[11.7 µM]
O=C(c1ccncc1)N1CCC2(CCCN(c3ncccn3)C2)CC1,-4.7%,0.1
C=CCOC(/C=C/c1ccccc1)CC (stereo unspecified),-0.4%,-3.0
C=C1O[C@@](CO)(n2cnc3c(N)ncnc32)[C@H](O)[C@@H]1O,6.8%&-12.9%,-1.7
O=C(c1ccncc1)N1CCC2(CC1)CCN(c1cccc(-c3ccccc3)c1)CC2,-8.7%,2.4
CC(=O)N1CCC2(CC1)CCN(c1ncccn1)CC2,25.8%,?

# Whole records from above.
# Results for CCC(C(=O)O)C1OC(C(C)C(O)C(C)C(=O)C(CC)C2OC3(C=CC(O)C4(CCC(C)(C5CCC(O)(CC)C(C)O5)O4)O3)C(C)CC2C)C(C)CC1C (stereo unspecified) = Sfp inh = 14.9%; Menin-MLL FL inh = 4.3
# Results for CC(=O)N1C2(C=CC1(C)C(=O)NCCN1CCOCC1)CCCCC2 (stereo unspecified) = Sfp inh = 20.5%; Menin-MLL FL inh = 5.8

# Following part.
SMILES,Sfp inh,Menin-MLL FL inh
COc1ccc(-c2nc3c(c4c2C[C@H](c2ccccc2)OC4)CN(S(=O)(=O)c2c(C)noc2C)CC3)c(C)c1,-2.8%,5.3[11.7 µM]
CC(C)C(=O)NC(=O)C1CCCN1C(=O)/C=C/c1ccccc1 (stereo unspecified),29.8%,0.6[11.7 µM]
COC(=O)/C=C\c1cc(O)ccc1O,50.1µM*,?
FC(F)(F)c1ccccc1-c1nc(NCCN2CCOCC2)c2ccccc2n1,-4.7%,-3.2
COc1ccc(-n2c(=O)c(-c3ccccc3)nc3cnc(N4CCNCC4)nc32)cc1,16.2%,-4.6
CC1CCC2C(C)(C)C3CC12CC[C@]3(C)O (stereo partly specified),8.3%,3.3

# Only part of the results is shown; rates above refer to the full screens.
